# S aureus helic = inhibitors of S. aureus replicative helicase, primary screen, biochemical, fluorescence unwinding readout; AID 485395, 2010; replicative DNA helicase (DnaC/DnaB), Staphylococcus aureus; purified S. aureus helicase, fluorescence unwinding assay; about half of the hits fall short of the stated cut; 0.05% of 120,000 active; inhibition, %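 (tested at about 80 µM)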;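 active = both duplicates at 50% or more, or one of them with a favoured structure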;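 also: 0% = mean of negative control wells and 100% = mean of positive control wells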
# MgrA-DNA mod = S. aureus MgrA activity modulators, primary screen, biochemical, S. aureus Newman, fluorescence polarization; MgrA-DNA binding; inhibition, %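 (about 10 µg/mL by stock and volumes)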; 0.13% of 84,000 active;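 active = above 50% in either of two replicates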;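 also: 0% = protein plus DNA without compound and 100% = DNA alone without protein; higher means less MgrA bound to DNA so lower polarization; one replicate is shown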
# Active calls of the source: *; i = inactive; . = no result given; & = joins results of further samples. This is a subset. The share of hits here may be higher or lower than overall.
# The line under a structure holds: S aureus helic	MgrA-DNA mod
COC(=O)CC1C(=O)NCCN1C(=S)Nc1ccccc1 (configuration not stated)
 : -13	.
CC(=O)OC1C(=O)c2ccccc2OC1c1ccccc1 (configuration not stated)
 : .	-1.4
Cc1nc2nc(NC(=O)c3ccccc3)[nH]n2c(=O)c1Cc1ccccc1
 : 19	.
Cc1ccc(NC(NC(=O)c2cccs2)C(=O)c2ccccc2)cc1 (configuration not stated)
 : 6	0.6
Nc1cc(-c2ccc(Cl)cc2)nn1-c1ccc(I)cc1
 : .	-0.5
CC1CCc2c(sc(NC(=O)c3cccs3)c2C(=O)N2CCCCC2)C1 (configuration not stated)
 : 0	1.1
O=C(O)[C@H]1OC(O)[C@H](O)[C@@H](O)[C@@H]1O (some centres not stated)
 : .	-4.0
O=C(/C=C/c1ccco1)OCc1nc2sc3c(c2c(=O)[nH]1)CCCC3
 : -14	.
CCOC(=O)N1CCC(NC(=O)CSCc2nc(-c3ccccc3Cl)oc2C)CC1
 : 10	.
Cc1[nH]nc(-c2ccc(S(=O)(=O)N3CCc4ccccc43)s2)c1C
 : -37	.
COc1cc(/C=C2\C(=O)NC(=S)N(c3ccc(F)cc3)C2=O)ccc1OCc1ccc(C(=O)O)cc1
 : .	17
Cc1ccccc1C(=O)OCC(=O)Nc1cccc(C#N)c1
 : -10	0.2
Cc1ccc(-n2c(=O)c3c(cnn3C)n(Cc3cccc(C)c3)c2=O)cc1
 : -17	.
CC(=O)c1sccc1NC(=O)c1ccccc1C(=O)O
 : .	0.5
CCN(CC)S(=O)(=O)c1ccc2oc(C(=O)NC3CCCCC3C)c(C)c2c1 (configuration not stated)
 : 6	0.1

# Further compounds follow.
# The line under a structure holds: S aureus helic	MgrA-DNA mod
O=S(=O)(CCN1CCC(n2cccc2)CC1)c1ccccc1
 : .	0.3
Cc1cc(NC(=O)CCCN2C(=O)/C(=C\c3ccco3)SC2=S)no1
 : 8	.
CN(C(=O)COC(=O)c1cnc(Cl)c(Cl)c1)C1CCCCC1
 : 0	0.4
Cc1ccccc1Nc1nc(N)nc(Cn2cc(Br)ccc2=O)n1
 : 14	.
Cc1cc2ccccc2n1CCNC(=O)c1ccc2c(c1)OCO2
 : -7	.
Cc1ccc(S(=O)(=O)c2c(N)n(NC(=O)C3CC3)c3nc4ccccc4nc23)cc1
 : 13	.
Cc1nc2scc(C)n2c(=O)c1S(=O)(=O)NCCN1CCOCC1
 : -21	.
COc1cccc(-n2c(=O)c3sccc3n(Cc3ccc(C(C)(C)C)cc3)c2=O)c1
 : 9	0.9
CCCCC(=O)Nc1ccc(S(=O)(=O)N2CCCCCC2)cc1
 : -3	0.0
N#CCOC(=O)c1ccccc1NC(=O)c1ccccc1
 : 11	.
O=C(OCC(=O)c1ccc(Cl)cc1Cl)c1ccccn1
 : -15	-0.4
COc1ccc(Nc2cc(N3CCCCC3)ncn2)cc1
 : -11	.
Cc1nc2cc(O)c(O)cc2s1
 : -10	.
CCn1c(O)c(C=NCC(c2ccc(OC)cc2)N(C)C)c(=O)n(CC)c1=S (configuration not stated)
 : 12	.
COc1ccc(/C=C2\SC(=O)NC2=S)cc1OC
 : -12	.

# Compound profiles, as listed above.
# Record of `O=C(O)[C@H]1OC(O)[C@H](O)[C@@H](O)[C@@H]1O` (some centres not stated) → S aureus helic: .; MgrA-DNA mod: -4.0
# Record of `O=S(=O)(CCN1CCC(n2cccc2)CC1)c1ccccc1` → S aureus helic: .; MgrA-DNA mod: 0.3
# Record of `Cc1ccccc1Nc1nc(N)nc(Cn2cc(Br)ccc2=O)n1` → S aureus helic: 14; MgrA-DNA mod: .

# (next part)
# The line under a structure holds: S aureus helic	MgrA-DNA mod
COc1ccccc1CNC(=O)C1c2ccccc2C(=O)N2CCc3ccccc3C12 (configuration not stated)
 : 10	1.8
COc1ccccc1N=Cc1sc2ccccc2c1O
 : i	4.2&15
O=C(CSc1nc2ccccc2o1)NCC12CC3CC(CC(C3)C1)C2
 : 8	-1.7
O=C(CCN1C(=O)c2ccccc2C1=O)Oc1c(-c2ccco2)oc2ccccc2c1=O
 : 9	5.6
Cn1cccc1C(=O)Nc1cc(S(C)(=O)=O)ccc1Cl
 : 22	.
O=S1(=O)CC(O)C(S(=O)(=O)Cc2ccc(Cl)cc2)C1 (configuration not stated)
 : .	-2.0
CCOC(=O)N1CCN(c2cc(C(F)(F)F)nc3c(Cl)cccc23)CC1
 : .	-1.2
CC1CCCCC1NC(=O)CSc1nnc(CC(=O)Nc2ccccc2Cl)n1C (configuration not stated)
 : 7	-2.5
O=C(CN1C(=O)C2C3C=CC(C3)C2C1=O)OCC(=O)c1ccccc1 (configuration not stated)
 : -1	-0.1
COC(=O)c1sc2c(c1N)CSc1ccc(Cl)cc1-2
 : .	1.1
COc1ccc(C(N)=O)c(Cl)c1OC
 : .	1.0
O=C(Nc1ccc2c(c1)OC1(CCCC1)O2)C1CC1
 : 5	.
Cc1ccc2cc(C#N)c(N3CCCN(C(=O)C4CCCCC4)CC3)nc2c1
 : -5	18
Cc1ccc(N2C(=O)CC(C(=O)NC3(C)CCS(=O)(=O)C3)C2c2cccs2)cc1 (configuration not stated)
 : 19	.
COc1ccc(NC(=O)CCCn2sc3ccccc3c2=O)cc1
 : 18	.

# Later entries.
# The line under a structure holds: S aureus helic	MgrA-DNA mod
Cc1ccc(N(CC(=O)Nc2cc(C)ccc2C)S(=O)(=O)c2c(C)nn(C)c2C)cc1
 : -26	.
O=C(CCn1c(=O)oc2ccccc21)NCc1ccccc1
 : -9	.
CC1(C)CC(=O)C(C(O)c2ccccc2)C(C)(C)N1 (configuration not stated)
 : 11	-2.5
COc1ccc(S(=O)(=O)/C=C/c2ccccc2)cc1
 : .	1.6
CCN(CC)CC(=O)Nc1ccc(-c2ccc(NC(=O)CN(CC)CC)cc2)cc1
 : -8	3.1
Cc1ccc(C(=O)N/C(=C/c2cccs2)C(=O)NCc2ccccc2)cc1
 : -23	.
CC(C)(C)OC(=O)N1CCN(c2ncnc3nc[nH]c23)CC1
 : 4	0.8
Cn1c(CO)nc2cc(N)ccc21
 : 12	13
CC(C)c1ccc(NS(=O)(=O)c2ccc(N3C(=O)CCC3=O)cc2)cc1
 : .	-2.2
N#Cc1c(C(F)(F)F)cc(-c2ccccc2)n(N)c1=O
 : .	-1.5
COc1ccc(C(=S)N2CCCC2)cc1OC
 : -3	-0.1
Cc1cc(C(=O)NN)c(C)n1-c1ccccc1
 : 17	.
COc1cccc(CNC(=O)C(C)n2c3ccccc3c3cnn(C)c(=O)c32)c1 (configuration not stated)
 : -14	.
Cc1ccc(NC(=S)Nc2ccccc2Cl)cc1NS(C)(=O)=O
 : .	0.2
COc1ccc(/C=c2\oc3cccc4c(OC)ccc(c2=O)c34)cc1
 : -19	14

# Next section, starting with the last four of the part before.
# The line under a structure holds: S aureus helic	MgrA-DNA mod
Cc1cc(C(=O)NN)c(C)n1-c1ccccc1
 : 17	.
COc1cccc(CNC(=O)C(C)n2c3ccccc3c3cnn(C)c(=O)c32)c1 (configuration not stated)
 : -14	.
Cc1ccc(NC(=S)Nc2ccccc2Cl)cc1NS(C)(=O)=O
 : .	0.2
COc1ccc(/C=c2\oc3cccc4c(OC)ccc(c2=O)c34)cc1
 : -19	14
O=C(NCCOc1ccccc1)C1=CC=CN2CCS(=O)(=O)N=C12
 : 14	.
CCN(c1ccccc1)c1cc(C)c2ccccc2n1
 : -7	.
C=CCNC(=O)CSc1nc2scc(-c3ccco3)c2c(=O)n1CC=C
 : 21	.
O=C(NC1CC1)c1ccc(OCC2CCCO2)cc1 (configuration not stated)
 : 12	.
NS(=O)(=O)c1ccc(NC(=O)CSc2nc3ccccc3n2C2CCCCC2)cc1
 : -14	.
Fc1ccc(NC2=NCCC2)cc1
 : -17	.
COC(=O)c1ccc(-c2ccco2)n1CC(=O)NC(C)C
 : 4	0.5
O=C(CSc1nc2ccccc2s1)c1ccc(O)cc1O
 : -1	.
O=C(c1cccc(S(=O)(=O)N2CCOCC2)c1)N1CCCCC1
 : 11	3.3
COc1ccc2nc(C3C(=O)c4cccnc4C3=O)ccc2c1 (configuration not stated)
 : -8	1.9
Cc1ccc(-n2c(C)nnc2SCC(=O)N(c2ccccc2)C(C)C)cc1
 : 0	-0.7
N#CCSc1nc2ccc(N)cc2s1
 : 11	-0.2
C=CCn1c(SCC(=O)c2ccc(NC(=O)CC)cc2)nnc1C1COc2ccccc2O1 (configuration not stated)
 : -14	.
Nc1ccc(-n2cnnn2)cc1
 : 3	-1.2
C=CCN1C(=O)/C(=C/c2ccccc2)SC1=Nc1cccc([N+](=O)[O-])c1
 : .	1.8

# Continuation.
# The line under a structure holds: S aureus helic	MgrA-DNA mod
CC1c2cccn2CCN1S(=O)(=O)/C=C/c1ccc(Cl)cc1 (configuration not stated)
 : 10	.
CCCCc1nc2c(nnn2Cc2ccccc2)c(=O)[nH]1
 : 8	-1.1
CCN(CC)CCCn1c(-c2ccccc2)cn2c3ccccc3nc12
 : 12	1.1
O=C(Nc1cccc(Br)c1)C1CC(=O)N(C2CCCC2)C1 (configuration not stated)
 : 13	-3.8
CC(=O)c1sc(-c2ccc(C(C)(C)C)cc2)cc1NC(=O)c1ccc(Cl)cc1
 : .	-2.6
Cc1ccc(C)n1-c1n[nH]c(=S)s1
 : 17	-0.8
O=C(Nc1ccccc1F)C1c2ccccc2C(=O)N2CCc3ccccc3C12 (configuration not stated)
 : 15	.
CC(=O)N1CCC(C(=O)NCc2cc3ccccc3s2)CC1
 : .	-0.1
COc1cccc(CNC(=O)c2cnn3c(C)c(Cc4c(C)cc(C)cc4C)c(C)nc23)c1
 : 17	4.6
O=C(Nc1ccc2c(c1)oc1ccc(S(=O)(=O)N3CCCC3)cc12)C1CC1
 : 7	-3.2
COc1ccc(N)cc1N=Cc1ccc(C#N)cc1
 : -147	35
CCN1CCCC1CNC(=O)c1nnc(Cc2ccccc2OC)o1 (configuration not stated)
 : 22	.
CC(C)(C)OC(=O)/C(C#N)=C/c1ccc(C#N)cc1
 : -9	.
CC(C)c1ccc(C(=O)Nc2ccccc2N2CCN(C)CC2)c(C(C)C)c1
 : 7	.
Cc1ccccc1-c1nnc(SCC(=O)Oc2c(C)cccc2C)o1
 : 1	0.8

# Following part:
# The line under a structure holds: S aureus helic	MgrA-DNA mod
O=C(O)c1cccc(OC(F)F)c1
 : -15	.
COc1ccc(Cc2nn3c(-c4ccccc4Br)nnc3s2)cc1
 : 15	2.5
COC(=O)C(C)Oc1cc2oc(=O)cc(C)c2cc1Cl (configuration not stated)
 : -9	.
CCC(=O)N=c1sc2c(C)cc(C)cc2n1CC
 : -9	.
Cc1cc(COC(=O)CSc2cc(C)c3ccccc3n2)no1
 : -12	.
Cc1ccc(C)c(SCC(=O)NC(C)C(c2ccccc2)N2CCOCC2)c1 (configuration not stated)
 : -3	1.8
Cc1cc(N)n(-c2nc3ccccc3s2)n1
 : -20	.
CCN(Cc1ccccc1)C(=O)CSc1nc2ncccc2o1
 : 19	.
O=C1CSC(=O)N1CC(O)CCl (configuration not stated)
 : 0	-1.0
CC(=O)OC1CCN(c2cc(C(F)(F)F)nc3cc(Cl)cc(Cl)c23)CC1
 : .	-1.4
CC1(C)C(c2ccccc2)=[N+]([O-])C(c2ccc(Br)cc2)N1O (configuration not stated)
 : 8	1.5
Cc1cc(NC(=O)COCC(=O)O)ccc1-n1cnnn1
 : -7	1.9
COc1cccc(CNC(=O)c2nnc(CS(=O)(=O)c3ccccc3)o2)c1
 : -1	0.6
CC(C)N1C(=O)S/C(=C/c2cc3c(cc2Cl)OCO3)C1=O
 : 13	.
CS(=O)(=O)c1ccc(C(=O)N2CCN(c3ccccc3)CC2)cc1
 : 8	.

# Next section.
# The line under a structure holds: S aureus helic	MgrA-DNA mod
O=C(NC1CCS(=O)(=O)C1)/C(=C/c1ccco1)NC(=O)c1ccccc1 (configuration not stated)
 : 18	.
CCN1CCN(C(=O)c2ccc3c(c2)NC(=O)c2ccccc2S3)CC1
 : 15	.
CN1CCN(c2nc(N3CCN(c4ccccc4)CC3)ncc2F)CC1
 : 12	.
COc1cc2c3c(c1OC)C1(C=CC(=O)C=C1)CC3N(C(=O)CCC(=O)O)CC2 (configuration not stated)
 : 2	.
O=S(=O)(c1c(Cl)cc(C(F)(F)F)cc1Cl)N1CCOCC1
 : .	-1.1
C[C@H]1C[C@@H]2[C@H]([C@@H](O)C[C@@]3(C)[C@H]2CC[C@]3(O)C(=O)CO)[C@@]2(C)C=CC(=O)C=C12
 : .	-0.1
C/C=C/C(=O)NCC1OCCc2ccccc21 (configuration not stated)
 : 0	1.6
CC1C(c2ccccc2)OCCN1C(=O)CCN1C(=O)c2ccccc2C1=O (configuration not stated)
 : .	-0.2
CSc1nn(-c2ccc(C(=O)OCC(=O)N(C)C)cc2)c(=S)s1
 : 8	.
CN(C)CCCNc1oc(-c2ccccc2)nc1C#N
 : 9	.
O=C(CSc1ncnc2ccccc12)Nc1cc(C(F)(F)F)ccc1Cl
 : -25	.
Nc1nnc(Sc2nc3c(Cl)cc(Cl)cc3s2)s1
 : .	0.1
C=CCC1(C#N)C(=S)NC(c2ccccc2)=C(C(=O)OCC)C1c1cccnc1 (configuration not stated)
 : 19	-2.1
N=C1CCCN1c1ccccc1O
 : 16	-2.6
Cc1ccccc1NS(=O)(=O)c1ccc2[nH]cc(C(=O)N3CCc4ccccc43)c(=O)c2c1
 : 12	-3.5

# (listing goes on)
# The line under a structure holds: S aureus helic	MgrA-DNA mod
CC1CC(C)CN(S(=O)(=O)c2ccc(C(=O)Nc3nc4ccc(S(N)(=O)=O)cc4s3)cc2)C1 (configuration not stated)
 : .	-2.2
COC(=O)c1sccc1O
 : .	-0.5
O=C(NC(Cc1ccccc1)C(=O)OCc1cnc(-c2ccccc2)o1)c1ccccc1 (configuration not stated)
 : 11	0.8
O=C(CCn1[nH]c(=O)c2ccccc2c1=O)NCCO
 : 16	0.6
Cc1c(CN(C)C)c2c(n1C)C(=O)c1ccc(Br)cc1-2
 : 64*	.
